Screening results: PubChem, several laboratories
Beta apoptosis: beta cell apoptosis inhibition. protection from apoptosis, % (no concentration beside the values). 0.8% of 300,000 active. INS-1E cytokine-induced death, ATP luminescence, 48 h; percent of positive-control rescue, neutral wells zero. AID 435005;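 active means all replicates at 75% or more, or half of them and the mean; inconclusive means half reach 75% but not the mean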;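 further: 0% = cytokine-treated negative control wells and 100% = positive control rescue; higher means more ATP so stronger rescue from cytokine killing; wells of about 40 µL received 100 nL stock; the first replicate is given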
A1 inh: inhibitors of the anti-apoptotic protein A1, read as caspase activation; MEF A1-2A-BIM cells, Caspase-Glo 3/7 luminescence, 3 h; percent of clofoctol response, vehicle zero; caspase activation, % (no concentration beside the values); 0.066% of 330,000 active; AID 2462;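 active means over half of replicate activation scores above 10%, or exactly half above 10 with the replicate mean above 10; inconclusive means replicate mean below 10 yet half the replicates above 10; inactive means over half of replicates below 10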;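 further: wells of about 30 µL received 50 nL stock; many hits fall short of the cut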
T cruzi inh: T. cruzi replication inhibition; T. cruzi beta-gal in NIH3T3, luminescence, 90 h; inhibition, % (no concentration beside the values); 1.4% of 300,000 active; AID 1885;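 active means mean inhibition across valid replicates above about 55%, limit read from the data; inconclusive means mean below that limit but half or more replicates reach it; inactive means mean below it, under half of replicates reach it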;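 further: signal also drops with host cell toxicity which is not excluded here; 0% = plate median of DMSO wells and 100% = zero luminescence signal; higher percent means less beta-gal luminescence so fewer parasites; stock transfer was 50 nL into about 50 µL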
B2AR ag: human beta-2 adrenergic receptor agonism by FAP; Am2.2-beta2AR cells, FAP receptor internalization, flow cytometry; reference of the scale not given here; response, % (no concentration beside the values); 0.43% of 340,000 active; AID 504454;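 active means response above a set limit, near 3 SD of response in nonfluorescent compounds, cut at about 42% in these data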;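 further: stock transfer was 100 nL into about 11 µL; a reference agonist was the positive control; negative values mostly stem from fluorescent compounds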
Target sequence (P07550 whole entry, looked up): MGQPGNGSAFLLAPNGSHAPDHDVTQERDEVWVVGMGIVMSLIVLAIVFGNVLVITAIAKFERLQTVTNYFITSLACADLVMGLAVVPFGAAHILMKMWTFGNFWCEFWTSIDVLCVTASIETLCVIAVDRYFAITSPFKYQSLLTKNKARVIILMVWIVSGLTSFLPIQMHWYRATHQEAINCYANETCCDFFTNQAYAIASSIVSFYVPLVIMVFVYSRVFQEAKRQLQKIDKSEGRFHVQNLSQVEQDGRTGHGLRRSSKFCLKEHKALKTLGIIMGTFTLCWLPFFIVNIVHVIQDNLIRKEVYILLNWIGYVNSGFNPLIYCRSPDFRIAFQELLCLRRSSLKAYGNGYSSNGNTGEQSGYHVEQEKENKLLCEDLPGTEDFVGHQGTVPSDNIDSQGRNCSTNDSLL
ALR inh: human ALR oxidase inhibition via reduced H2O2. P55789. purified ALR, DTT oxidation, H2O2 HRP-luminol luminescence. inhibition, % (test concentration not listed). 3.8% of 290,000 active;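 active means mean and each replicate at 75% or more; inconclusive means only one of the two met; inactive means neither met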;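 further: stock transfer was 7.5 nL into about 7.5 µL; 0% = neutral wells and 100% = wells with inactivated enzyme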
Target sequence (P55789 whole entry, looked up): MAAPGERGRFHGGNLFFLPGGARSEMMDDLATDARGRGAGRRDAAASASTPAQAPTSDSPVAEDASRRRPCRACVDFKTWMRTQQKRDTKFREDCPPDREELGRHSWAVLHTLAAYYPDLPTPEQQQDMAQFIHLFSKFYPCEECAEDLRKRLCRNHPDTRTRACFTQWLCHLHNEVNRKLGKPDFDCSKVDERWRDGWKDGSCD
rRNA inh HTS: selective bacterial rRNA inhibition in E. coli; E. coli WT GFP vs humanized-ribosome RFP mutants, fluorescence, 24 h; hits give low values; DMSO median 0, no signal -100; GFP signal change (wild-type ribosome), % (concentration not given with the values); 1.6% of 350,000 active;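 active means significant combined selectivity score with lowered wild-type GFP, culture density cut under 30%, mutant RFP and density less affected; inactive means any of these conditions unmet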; further: one replicate is shown; some compounds called inactive have numbers as strong as hits
Calb FLC: C. albicans growth modulation with fluconazole; growth inhibition, % (test concentration not listed); C. albicans CaCi-2 (fluconazole-resistant clinical isolate) + fluconazole, Alamar Blue growth, 48 h; 0.57% of 300,000 active;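 active means most replicates above 75%; inconclusive means exactly half above 75%; inactive means most below 75%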;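 further: all wells also contain fluconazole at 8 µg/ml as a sub-toxic cotreatment; 0% = median of DMSO wells and 100% = median of geldanamycin control wells; wells of about 8 µL received 7.5 nL stock; the first replicate is given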
LANA-H2B inh: blocks KSHV LANA binding to histone H2A/H2B. Q9QR71. cell-free LANA-H2A/H2B peptide, fluorescence polarization. inhibition, % (test concentration not listed). 0.6% of 320,000 active; in the data active means inhibition mostly above about 10%, no sharp cut-off; inactive means mostly below about 6.7%;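 further: stock transfer was 7.5 nL into about 10 µL; 0% = median of vehicle wells and 100% = median of positive control wells; one replicate is shown; the record names a cut of 25% in any replicate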
rRNA inh HTS OD600: recorded beside rRNA inh HTS, whose call it bears; OD600 change, %; measured here: OD600 growth;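 optical density of the mix in the first replicate; 0 = DMSO median and -100 = no signal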
rRNA inh HTS RFP: second read-out of rRNA inh HTS, no call of its own (marks repeat the call); RFP signal change, %; measured here: RFP humanized mutant strains;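 first replicate; 0 = DMSO median and -100 = no signal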
Numbers without * were called inactive; u = inconclusive; x = no result given.

Order of results: Beta apoptosis	rRNA inh HTS RFP	rRNA inh HTS	A1 inh	ALR inh	B2AR ag	LANA-H2B inh	T cruzi inh	Calb FLC	rRNA inh HTS OD600
> O=C(c1cc(Cl)cc(Cl)c1)N1CCN(c2cc(C(F)(F)F)nc3ccccc23)CC1
  2.1	-1.5	11.5	0.3	-8.9	11.4	4.9	0.0	-0.3	8.1
> CCOc1cc(CN2CCCC(N3CCN(c4ccc(F)cc4)CC3)C2)ccc1OC (centres undefined)
  x	1.4	6.5	1.7	26.4	7.0	-5.2	50.5	-13.2	8.3
> COc1ccc(NC(=O)C2CCN(C(=O)c3cccs3)CC2)cc1OC
  -1.9	x	x	-0.9	-10.2	3.6	3.9	-6.2	-1.5	x
> CC(=O)c1c(C)[nH]c(C(=O)Nc2ccc(C)c(S(=O)(=O)Nc3ccc(C)cc3C)c2)c1C
  15.2	23.5	-14.9	0.4	x	19.9	2.6	23.5	32.2	-24.9
> Cc1nc(NS(=O)(=O)c2cccc([N+](=O)[O-])c2)sc1C(C)(C)C
  0.9	2.9	8.1	0.9	39.3	11.7	-0.4	12.4	0.3	1.0
> CC(=O)NC(Cc1ccccc1C)C(=O)NC1CCN(C(=O)c2ccc(C)cc2)CC1 (centres undefined)
  2.3	-0.5	2.5	0.0	0.2	6.3	2.6	-10.9	2.2	2.4
> COc1ccccc1N/N=C1\COC(C)(C)CC1=O
  -12.6	2.5	12.7	0.7	62.2	-10.6	-0.3	0.4	2.1	-0.8
> N#Cc1c(SCC(=O)O)nc(N2CCOCC2)c2c1CCCC2
  4.3	-2.1	2.6	0.0	11.2	-6.6	-0.2	-3.6	2.5	-13.9
> CCCn1c(SCC(=O)Nc2ccc(Cl)cn2)nnc1C1CC1
  -4.2	-1.2	-0.7	-0.5	1.6	-5.0	2.1	5.9	x	-2.4
> CC(=O)Nc1c2c(nn1-c1ccc(F)cc1)CSC2
  -4.0	-1.2	5.7	1.3	-1.5	-4.1	-1.7	-17.8	21.5	14.6
> CC1=NN(c2ccccc2)C(=O)/C1=C\c1cn(C)c2ccccc12
  -1.0	-2.0	4.5	-0.7	60.7	0.7	0.3	5.6	2.4	6.8
> COc1ccc(/C=C/C(=O)N(C)C2CCS(=O)(=O)C2)cc1 (centres undefined)
  x	1.6	1.8	x	x	-2.2	x	-4.4	-4.8	5.3
> Cc1ccccc1NC(=O)c1cccnc1
  -19.8	-1.6	7.4	0.0	-0.2	-5.0	5.2	-10.9	-6.0	5.0
> O=C(Nc1nnc(-c2ccccc2)o1)NC1CCCCC1
  13.1	x	x	-0.7	-13.5	-9.1	11.5	4.7	-32.9	x
> CCCCCn1ccc(=O)c2c(C(F)(F)F)nccc21
  7.2	x	x	0.2	x	4.2	-1.9	-8.6	-0.2	x
> COc1cccc(N2C(=O)C(CC(=O)Nc3ccc(F)cc3)N(C3CCCCC3)C2=O)c1 (centres undefined)
  8.6	x	x	1.2	-2.5	7.6	-1.3	6.9	33.1	x
> CC1CC(=O)c2cnc(NCC3CCCO3)nc2C1 (centres undefined)
  x	x	x	0.3	-48.3	9.3	0.3	-24.6	6.9	x
> O=C(NCC(c1cccs1)N1CCOCC1)c1cn(-c2ccccc2)nc1-c1ccc(F)cc1 (centres undefined)
  7.6	4.3	-10.8	0.5	20.8	-11.2	-7.2	9.7	17.7	-11.9
> COc1cccc(C(=O)/C=C/Nc2ccc(S(=O)(=O)Nc3ccc(C(C)=O)cc3)cc2)c1
  1.3	58.0	36.9	0.1	-2.0	6.6	-3.2	-9.5	3.5	-10.9
> CC(=O)c1c(C)[nH]c(C(=O)OCC(=O)Nc2ccc(Cl)cc2[N+](=O)[O-])c1C
  112.6*	-5.3	4.5	-0.7	-4.1	-21.8	-3.1	0.6	1.8	-3.4
> COc1ccc2[nH]c(=O)c(CNc3ccccc3C)cc2c1
  -5.7	3.0	9.2	-0.3	-35.1	2.4	0.5	-5.5	1.3	-2.7
> CN(C)c1ncnc2c1ncn2C1OC(CO)C(O)C1O (centres undefined)
  69.3	x	x	2.7	4.4	5.7	-0.1	u	-2.5	x
> Cc1ccc(CCNC(=O)C2CCN(C(=O)c3sccc3-n3cccc3)CC2)cc1
  -1.5	x	x	0.4	-1.1	-7.2	-6.2	10.1	-0.7	x
> CSc1ccccc1C(=O)NC1CC2CCC1C2 (centres undefined)
  x	x	x	-0.1	-34.6	-2.3	4.0	-3.8	8.2	x
> COc1cc(C(=O)NC(C)C2CC3CCC2C3)ccc1OC(F)F (centres undefined)
  1.7	x	x	-1.1	x	-1.4	2.7	x	x	x
> CC(C)CNC(=O)c1cccc(NC(=O)CSc2ccccc2)c1
  -7.6	x	x	0.5	-4.5	1.9	4.0	1.7	-6.2	x
> CCc1cc2c(SCC(=O)NC3CCS(=O)(=O)C3)ncnc2s1 (centres undefined)
  -1.3	1.4	5.6	0.3	-12.1	-13.0	3.4	2.8	7.4	-3.0
> CCCCN=C1NN=C(c2cccc([N+](=O)[O-])c2)CS1
  -11.0	3.0	7.1	-0.4	16.1	-1.7	8.4	9.9	-8.1	10.5
> CCOC(=O)COc1ccc(Cl)cc1C1NC(=O)NC(C)=C1C(C)=O (centres undefined)
  0.2	x	x	-0.1	-11.1	13.6	-1.9	-2.1	0.5	x
> CCCOc1ccc(C(=O)OCC(=O)NCCc2ccc(OCC)c(OCC)c2)cc1OC
  -3.7	1.8	17.0	1.6	-16.7	-1.9	6.2	3.8	-0.9	16.0

Part of the list above in order of SMILES length, rising.
Order of results: Beta apoptosis	rRNA inh HTS RFP	rRNA inh HTS	A1 inh	ALR inh	B2AR ag	LANA-H2B inh	T cruzi inh	Calb FLC	rRNA inh HTS OD600
> Cc1nc(NS(=O)(=O)c2cccc([N+](=O)[O-])c2)sc1C(C)(C)C
  0.9	2.9	8.1	0.9	39.3	11.7	-0.4	12.4	0.3	1.0
> O=C(c1cc(Cl)cc(Cl)c1)N1CCN(c2cc(C(F)(F)F)nc3ccccc23)CC1
  2.1	-1.5	11.5	0.3	-8.9	11.4	4.9	0.0	-0.3	8.1
> COc1cccc(C(=O)/C=C/Nc2ccc(S(=O)(=O)Nc3ccc(C(C)=O)cc3)cc2)c1
  1.3	58.0	36.9	0.1	-2.0	6.6	-3.2	-9.5	3.5	-10.9

(listing goes on)
Order of results: Beta apoptosis	rRNA inh HTS RFP	rRNA inh HTS	A1 inh	ALR inh	B2AR ag	LANA-H2B inh	T cruzi inh	Calb FLC	rRNA inh HTS OD600
> CCn1cc(-c2cc(C(=O)O)on2)c(C)n1
  x	2.6	16.2	-0.3	2.0	1.0	0.5	-14.6	5.7	16.5
> CC(=O)c1cc(C(=O)N2CCCC(CCC(=O)N(C)CCc3ccccn3)C2)cs1 (centres undefined)
  4.4	3.5	3.0	-0.3	-10.7	0.1	5.7	-22.3	-6.3	9.2
> Cc1ccc(C(NC(=O)N2CC(C)OC(C)C2)C(Cl)Cl)cc1F (centres undefined)
  4.4	x	x	-0.4	-4.3	1.0	-1.2	-16.6	0.6	x
> O=C(Nc1ccc(N2CCOCC2)cc1)C1CC(O)CN1S(=O)(=O)c1ccc(Cl)cc1 (centres undefined)
  5.2	1.6	14.2	0.2	78.0*	2.0	-3.0	6.0	-22.1	11.0
> CCOC(=O)C1=C(C)N=c2s/c(=C\c3cccn3C)c(=O)n2C1c1cccc(OC)c1OC (centres undefined)
  6.3	x	x	0.2	-27.2	-20.2	-9.0	28.7	-7.4	x
> CCOc1nc(SCCOc2ccccc2)nc(N(C)C)n1
  3.4	x	x	1.3	0.8	-6.5	-2.3	7.6	-2.9	x
> COCCN1CCN(c2c(C)c(C)nc3cc(-c4cccc(OC)c4)nn23)CC1
  -2.9	-5.2	3.5	-0.8	-21.3	0.6	-0.2	2.6	14.0	-0.3
> O=C(Nc1nnc(-c2ccc(F)cc2)o1)c1ccco1
  0.6	-4.5	-36.0	-0.5	95.6*	4.5	-2.5	-6.1	15.6	-44.2
> COc1ccc(C2(C)NC(=O)N(CC(=O)NCCC3=CCCCC3)C2=O)cc1OC (centres undefined)
  0.0	x	x	-1.0	3.2	18.5	-3.7	-7.1	-2.8	x
> O=C(O)C1C2C=CC3(O2)C1C(=O)N1c2ccccc2COC13 (centres undefined)
  -3.9	x	x	-0.2	-8.9	1.9	3.5	-1.8	-23.3	x
> COc1cc(/C=C2\C(=N)N3N=C(S(C)(=O)=O)SC3=NC2=O)ccc1OS(=O)(=O)c1ccc(C)cc1
  -9.9	1.0	-17.9	2.1	u	-0.7	4.7	-12.7	-14.7	-18.6
> O=C(O)c1cccc(Sc2ccc(Br)cc2C(=O)O)c1
  -1.5	-4.3	0.9	-0.2	-2.3	-0.1	2.7	x	x	7.4
> Cc1ccccc1C(=O)NNC(=S)NC(=O)c1cccnc1
  -5.5	-4.2	-24.2	-0.5	7.0	0.5	-1.0	-7.6	-4.2	-28.9
> Cc1ccc(Cl)cc1NC(=O)Cn1nc(-c2cccs2)ccc1=O
  -7.4	1.4	1.9	-0.1	-0.6	4.4	-1.3	22.6	-6.9	1.7
> CCOc1cc(C(F)(F)F)cnc1/C(N)=N/O
  -10.9	0.4	8.7	0.0	-12.8	-3.2	-1.2	-0.3	-1.1	3.4
> CC(C)CC(=O)Nc1ccc2c(c1)oc1ccccc12
  10.4	x	x	-1.4	-4.9	6.5	3.0	-3.5	-3.2	x
> CCOc1ccc(N2CC(C(=O)Nc3cccc(S(=O)(=O)NC4=NCCC4)c3)CC2=O)cc1 (centres undefined)
  0.2	1.3	18.2	0.4	-4.4	-2.6	-0.9	-0.4	18.0	10.5
> CCCCNC(=O)c1onc(CSc2cccc(OC)c2)c1C(=O)O
  -8.0	16.9	-6.5	-1.1	-17.8	-0.1	0.4	-2.6	-7.7	5.1
> COc1ccc(-c2nc3cnccn3c2Nc2ccc3c(c2)OCO3)cc1
  1.8	-2.5	-17.9	-0.3	87.0*	0.9	-1.7	14.8	9.3	-31.1

Some of these compounds in order of the LANA-H2B inh value, lowest first:
smiles	rRNA inh HTS RFP	rRNA inh HTS	ALR inh	B2AR ag	LANA-H2B inh	rRNA inh HTS OD600
COc1ccc(C2(C)NC(=O)N(CC(=O)NCCC3=CCCCC3)C2=O)cc1OC (centres undefined)	x	x	3.2	18.5	-3.7	x
Cc1ccc(Cl)cc1NC(=O)Cn1nc(-c2cccs2)ccc1=O	1.4	1.9	-0.6	4.4	-1.3	1.7
CCOc1cc(C(F)(F)F)cnc1/C(N)=N/O	0.4	8.7	-12.8	-3.2	-1.2	3.4
Cc1ccccc1C(=O)NNC(=S)NC(=O)c1cccnc1	-4.2	-24.2	7.0	0.5	-1.0	-28.9

The list is partial (hit frequency here may not be typical).
